Vaccinia mCherry = inhibitors of vaccinia virus infection (mCherry reporter signal); Vaccinia virus mCherry reporter infection, fluorescence; about a quarter of the inactives have no number; Potency, µM (top dose mostly 36.5 µM), inactives show at the highest dose activity change, negative = inhibition, most hits filed as inhibitors; 0.63% of 310,000 active; AID 720579; active = well fitted inhibition curve with a large enough effect; inconclusive = small, poorly fitted or top-dose-only effect; inactive = no such curve, though single readings can be large or run the other way; tested in A549 cells; further: nearly all actives have a fitted effect of over 35% in size; inactives centre near -10
Vaccinia Venus = inhibitors of vaccinia virus (Venus reporter) | Vaccinia virus Venus reporter expression, fluorescence | Potency, µM (titrated, usually from 36.5 µM), inactives show top-dose activity change, negative = inhibition, hits mostly inhibitors | 0.46% of 330,000 active | AID 720580; active means well fitted inhibition curve with a large enough effect; inconclusive means small, poorly fitted or top-dose-only effect; inactive means no such curve, though single readings can be large or run the other way; tested in A549 cells; further: nearly all actives have a fitted effect of over 30% in size; inactives centre near -10
Starred values were filed as active, the others as inactive; i = inactive; ? = inconclusive; · = not tested or not shown; [ ] = dose if it differs, or a comment. On the % scale 0 is the no-effect control and ±100 the full control effect; potency means the concentration at half of the fitted maximal effect.

The opening seven entries, to show the layout:
SMILES | Vaccinia mCherry | Vaccinia Venus
CCNC(=O)c1cc2c(c(-c3cccc(-c4cc5ccccc5o4)c3)n1)[C@H](CCO)N(C(=O)NC(C)C)C2 | i | -1.7%
CC(C)(C)C(=O)Nc1ccccc1C(=O)NCc1ccco1 | · | -11.5%
Cc1ccn(-c2cc(O)c(-n3ccc(C)n3)cc2O)n1 | -20.5% | -7.7%
CCOC(=O)c1c(C)oc2nc(C)nc(N3CCN(c4cc(Cl)ccc4C)CC3)c12 | -11.0% | -10.8%
Cc1cccc(N2NC(=O)/C(=C/c3ccc(-c4ccc(Cl)c(C(=O)O)c4)o3)C2=O)c1 | 4.3% | -1.3%
COc1ccc2c(c1)c1c(c(=O)n(CCc3ccccc3)c(=O)n1Cc1cccc(Cl)c1)n2C | -6.6% | 3.5%
CC(C)C[C@H]1C(=O)N2CCC[C@H]2[C@]2(O)O[C@](NC(=O)[C@@H]3C=C4c5cccc6[nH]cc(c56)C[C@H]4N(C)C3)(C(C)C)C(=O)N12 | i | 2.5%

All compounds of this part, from the first entry:
SMILES | Vaccinia mCherry | Vaccinia Venus
CCNC(=O)c1cc2c(c(-c3cccc(-c4cc5ccccc5o4)c3)n1)[C@H](CCO)N(C(=O)NC(C)C)C2 | i | -1.7%
CC(C)(C)C(=O)Nc1ccccc1C(=O)NCc1ccco1 | · | -11.5%
Cc1ccn(-c2cc(O)c(-n3ccc(C)n3)cc2O)n1 | -20.5% | -7.7%
CCOC(=O)c1c(C)oc2nc(C)nc(N3CCN(c4cc(Cl)ccc4C)CC3)c12 | -11.0% | -10.8%
Cc1cccc(N2NC(=O)/C(=C/c3ccc(-c4ccc(Cl)c(C(=O)O)c4)o3)C2=O)c1 | 4.3% | -1.3%
COc1ccc2c(c1)c1c(c(=O)n(CCc3ccccc3)c(=O)n1Cc1cccc(Cl)c1)n2C | -6.6% | 3.5%
CC(C)C[C@H]1C(=O)N2CCC[C@H]2[C@]2(O)O[C@](NC(=O)[C@@H]3C=C4c5cccc6[nH]cc(c56)C[C@H]4N(C)C3)(C(C)C)C(=O)N12 | i | 2.5%
CC1CCCCN1CC(=O)Nc1ccccc1Sc1ccccc1 (stereo not given) | i | -8.4%
Cc1ccccc1CNC(=O)CCC(=O)N1CC2CCCN2c2ccccc21 (stereo not given) | -22.1% | -11.9%
COc1ccc(C(=O)CSc2ccc(-c3ccccc3)nn2)cc1 | i | -10.6%
COc1ccccc1-c1coc2cc(OCC(=O)OCc3ccccc3)ccc2c1=O | i | -9.4%
O=C(CCn1cnnn1)Nc1cccc(F)c1 | i | -8.7%
CCN(CC)C(=O)CCNS(=O)(=O)c1ccc(C)cc1 | -11.5% | -13.0%
CCN1CCN(C(=O)c2cc3c(s2)-c2c(C)cccc2OC3)CC1 | 0.7% | -11.7%
COc1ccc(C(Cl)=C(C=O)c2ccc(OC)c(OC)c2)cc1OC | ? | ?
Cc1ccc(NC(=O)C2CCN(C(=O)c3cccs3)CC2)c(C)c1 | -13.1% | -15.3%
CC1CCCC(C)N1C(=O)COC(=O)c1ccccc1C(=O)c1ccccc1 (stereo not given) | i | -9.0%
Cc1ccc(Cl)cc1NC(=O)CC1NC2CCCCC2NC1=O (stereo not given) | -13.7% | -4.6%
CCOC(=O)C1(Cc2cccc(OC)c2)CCN(Cc2cccn2-c2ccccn2)CC1 | -25.1% | -11.4%
O=C(COC(=O)/C=C/c1ccco1)Nc1ncc(C(F)(F)F)cc1Cl | -13.0% | -8.0%
COc1cccc(NC(=O)COC(=O)c2ccccc2F)c1 | -10.8% | -8.5%
Cc1ccc(Cl)cc1N1CCN(S(=O)(=O)c2cn(C)c(C)n2)CC1 | -11.2% | -1.7%
O=C1C2CCCCC2C(=O)N1c1ccc(NC2CCCCC2)c([N+](=O)[O-])c1 (stereo not given) | -14.4% | 6.4%
CCOC(=O)c1c(NC(=O)C(C)Sc2cn(CCNC(=O)c3c(F)cccc3F)c3ccccc23)sc2c1CCC2 (stereo not given) | -5.6% | -8.3%
COc1ccc(OC)c(CNC(=O)CCc2c(C)nc3c(c2C)c(=O)n(C)c(=O)n3C)c1 | -4.1% | 1.4%
O=C(COC(=O)c1ccc(Cl)nc1)NC(=O)c1ccccc1 | -14.4% | -10.9%
Cc1ccc2cn[nH]c2c1NC(N)=S | -22.0% | 2.9%
Cc1csc(SCC(=O)Nc2nc(-c3ccccc3)cs2)n1 | · | ?
CN1CCN(c2ccc(NS(=O)(=O)c3ccc(Cl)cc3)cn2)CC1 | -7.9% | -15.2%
COc1cccc2[nH]c3c(N4CCCCC4)ncnc3c12 | -25.2% | -18.7%
COc1cc(CNc2ncnc3c2ncn3[C@H]2CN(Cc3cccc(C(F)(F)F)c3)C[C@@H](COC(C)=O)O2)cc(OC)c1OC | i | ?
CN(C)S(=O)(=O)c1cccc(NC(=S)NC2CCCCC2)c1 | -22.7% | -8.3%
Cc1cc2c(SCC(=O)N3CCN(c4ccccc4)CC3)ncnc2s1 | i | -9.0%
CCC1=NN(C(=O)Cc2ccc(OC)c(OC)c2)C(O)(C(F)(F)F)C1 (stereo not given) | -21.2% | 1.7%
CC(C)c1cnc2c(c1SCC(=O)Nc1ccc(C(N)=O)cc1)c(=O)n(C)c(=O)n2C | -16.7% | -8.5%
COc1ccc(N2C(=O)c3ccccc3C2O)cc1 (stereo not given) | 7.6% | -4.4%
COCC(=O)N1CCC(Oc2ccc(C(=O)N(C)C(C)c3ccon3)cc2)CC1 (stereo not given) | i | -5.8%
Cc1nnc(NC(=O)C2c3ccccc3Oc3ccccc32)s1 | · | -18.6%
CCC(N)(C(=O)O)c1ccc(C(=O)O)cc1 (stereo not given) | -2.8% | -10.3%
Cc1c(C(=O)N(C)c2cccc(C(F)(F)F)c2)sc2nc3n(c(=O)c12)CCCCC3 | -3.7%[7.34 µM] | -5.9%[7.34 µM]
COc1ccc(N(CC(=O)NCc2cccnc2)S(=O)(=O)c2ccc(C)c([N+](=O)[O-])c2)cc1 | i | 0.2%
Cc1ccc(S(=O)(=O)/N=C(\CCl)N2CCOCC2)cc1 | ? | ?
CCN(CC(=O)Nc1c(F)cccc1F)C(=O)/C=C/c1ccc2c(c1)OCO2 | -9.7% | -7.7%
Cc1cnc(C(=O)OCC(=O)c2ccccc2)cn1 | -23.9% | -2.4%
O=C(Nc1ccc(C(F)(F)F)cn1)Nc1cccs1 | -16.1% | -9.1%
COc1cc(NC(=O)CSc2ncccc2C(=O)OC(C)C)cc(OC)c1 | -16.6% | -15.1%
CCCCOc1ccc(C(=O)N/N=C/c2cn[nH]c2-c2ccc(OC)c(OC)c2)cc1 | -27.4% | -19.5%
COc1ccc2cc(C(=O)Nc3c(C)n(C)n(-c4ccccc4)c3=O)sc(=O)c2c1OC | -27.6% | -16.0%
Cc1ccc(S(=O)(=O)Nc2ccc(-c3nnc(SCC#N)n3C)cc2)cc1 | -17.6% | ?
COc1ccc2nc(NC(=O)CCc3nc(-c4ccccc4F)no3)sc2c1 | -12.5% | 0.0%
COc1cccc(NP2(=O)OCC(C)([N+](=O)[O-])CO2)c1 (stereo not given) | -12.9% | -9.1%
O=C(CC[C@H]1O[C@@H](n2ccc(=O)[nH]c2=O)[C@H](O)[C@@H]1O)NCCN1CCOCC1 | 0.6% | -0.3%
CCn1cc(Br)c(C(=O)Nc2sc3c(c2C(N)=O)CCCC3)n1 | -21.2% | -14.9%
O=c1oc2ccccc2cc1-c1cn2cc(Cc3ccc(F)cc3)sc2n1 | ? | -27.5%
CC(C)(C)N=C(NS(=O)(=O)c1cccs1)c1ccccc1 | i | 3.9%
CCCCC(CC)CNC(=O)CCCn1c(=O)[nH]c2ccsc2c1=O (stereo not given) | -7.6% | -5.1%
COc1ccnc(Nc2cccc(C)c2)c1C#N | -3.5% | -12.2%
Cc1ccc(OCCn2cc(C(=O)c3cccs3)c3ccccc32)cc1 | 9.4% | -3.3%
Cc1nc(-c2ccccc2)sc1-c1ccc(SCC(=O)Nc2cccc(C(F)(F)F)c2)nn1 | ? | ?
Cc1ccc(S(=O)(=O)NCc2ccc(C(=O)NC3CCCCC3)cc2)cc1 | -25.8% | -18.8%

The listing continues.
SMILES | Vaccinia mCherry | Vaccinia Venus
Cc1cccc(CN2CCN(CC(=O)NCCCN3CCCC3=O)C2=O)c1 | · | ?
O=C1C(=Cc2ccc(F)cc2)Cc2ccccc21 | i | -5.0%
CS(=O)(=O)Nc1ccc(-c2nc3ccccc3s2)cc1 | 4.3% | -6.4%
CCOC(=O)C(NC(C)=O)(NS(=O)(=O)c1ccccc1)C(F)(F)F (stereo not given) | -11.9% | -7.6%
CCOC(=O)CCCNC(=O)COC(=O)CCC(=O)c1ccc(F)cc1 | -4.9% | -6.3%
COc1ccc(/C=N/Nc2nncc3ccccc23)cc1 | -4.3% | -7.1%
C=CCNC(=O)c1ccccc1S(=O)c1ccccc1C#N (stereo not given) | -17.7% | -10.7%
Cc1c(CCO)sc[n+]1CC(=O)OC12CC3CC(CC(C3)C1)C2 | -12.9% | -3.7%
CC(=O)N1CC(=O)N=C1SCC(=O)Nc1nc(-c2ccccc2)c(-c2ccccc2)s1 | i | ?
O=CC(=O)c1ccccc1 | i | -9.7%
COCCNCC(=O)N1c2ccccc2Sc2ccccc21 | -7.3% | -0.3%
O=C(COC(=O)c1ccccc1O)NCc1ccco1 | -6.0% | 1.4%
COc1ccccc1NC(=O)c1cc2n(n1)C(C(F)(F)F)CC(c1ccc3c(c1)OCO3)N2 (stereo not given) | · | ?
O=C(CN1CCCCC1)Nc1nnc(-c2ccc([N+](=O)[O-])cc2)s1 | · | -24.0%
O=C(CCn1c(=O)c2cccn2c2ccccc21)Nc1ccc(F)cc1 | 1.7%[7.34 µM] | 2.5%[7.34 µM]
Cc1nnc2ccc(-c3ccc(NC(=O)Cc4cccs4)cc3)nn12 | -5.4% | -11.1%
CCOC(=O)C1=C(O)/C(=C\c2ccc(OC)c(OC)c2)N=C1C | -10.7% | 1.2%
CN1CCN(c2ccc(NC(=O)c3cc([N+](=O)[O-])ccc3N3CCOCC3)cc2)CC1 | -23.0% | -11.5%
CC(=O)Nc1nnc(SCc2ccc(C(=O)Nc3ccccc3F)cc2)s1 | -2.0% | -9.2%
O=C(NCC(c1cccnc1)N1CCN(c2ccccc2F)CC1)Oc1ccccc1 (stereo not given) | · | -14.0%
O=S(=O)(Nc1ccc(NS(=O)(=O)c2ccccc2)cc1)c1ccccc1 | -1.8% | -7.9%
Cc1ccc(NC(=S)N2CCN(S(=O)(=O)c3ccccc3)CC2)cc1C | ? | -16.1%
Nc1nc(N)nc(-c2cc(Cl)ccc2Cl)n1 | i | -8.7%
Cc1occc1C(=O)N/N=C/c1ccc(Cl)c([N+](=O)[O-])c1 | -20.4% | -24.9%
CN(C(=O)CSc1cc(C(=O)c2nccn2C)c2ccccc2n1)c1ccccc1 | -15.1% | -5.9%
O=C(c1ccccc1)N1CCN(c2ccccc2)CC1 | -1.7% | -14.1%
CCN1CCN(C(=O)Cn2ncc3c([nH]c4ccc(C)cc43)c2=O)CC1 | i | -5.3%
COc1cc(OC)c(OC)cc1/C=C/c1nc2ccccc2o1 | -14.7% | 4.9%
Cc1cc(C(F)(F)F)nn1C(=O)c1cccnc1Cl | -18.4% | -14.3%
CCOC(=O)C1(C)CCCN(C(=O)c2cccc(OC(F)(F)F)c2)C1 (stereo not given) | -12.0% | -1.5%
COc1ccc(S(=O)(=O)N2CCCCC2)cc1NC(=O)C1CCCO1 (stereo not given) | -8.9% | -3.2%
COC(=O)c1[nH]c2ccc(Br)cc2c1NC(=O)Oc1ccccc1 | -15.2% | -12.2%
CCCN1C(=O)c2cc(C(=O)Nc3ccc(OC)cc3OC)ccc2C1Nc1ccc(OC)cc1OC (stereo not given) | -14.4% | -11.4%
O=C(NCc1n[nH]c(=O)c2ccccc12)C1CC(=O)N(c2ccc(Cl)cc2)C1 (stereo not given) | -15.6% | -21.3%
Cc1ccc(CNC(=O)CSc2nnc(C)c3c(C)n(-c4ccccc4)nc23)cc1 | -13.5% | -17.6%
Cn1cc(CN2CCC(C(O)CCc3ccccc3)CC2)c(-c2ccccc2F)n1 (stereo not given) | -27.5% | -14.2%
CCN1C(=O)[C@H]2[C@H]3CN=C(SCc4ccc(Cl)cc4)N3[C@@](C)(C(=O)OC)[C@H]2C1=O | i | -21.4%
CC1(C)CC(=O)c2cc(C(=O)Nc3ccc(Br)cc3)c(=O)n(-c3ccc(Cl)cc3)c2C1 | -13.1% | -18.6%
O=C(CC1Sc2ccccc2NC1=O)OCc1cc(=O)oc2cc(O)ccc12 (stereo not given) | i | -12.4%
CCCCCCN1C[C@@H](O)[C@H](n2cc(C3CC3)nn2)C[C@@H]1c1ccc(Cl)cc1 | i | -29.0%
CCn1cc(C(=O)N2CCN(c3ccc(OC)cc3)CC2)c(=O)c2cc(S(=O)(=O)N3CCCCC3)ccc21 | ? | -21.0%
Cc1ccccc1NC(=S)Nc1cccc2cnccc12 | -7.6% | -0.4%
Cc1ccsc1C(=O)N1CCC1(C)C(=O)NS(=O)(=O)c1ccc(C#N)cc1 (stereo not given) | 36.2%[activator] | -3.9%
CCN(CC)S(=O)(=O)c1ccc(-c2nnc(SCC(=O)N3CCc4ccccc43)o2)cc1 | ? | ?
CC(C)C1=CC2=CCC3[C@@](C)(CCC[C@@]3(C)C(=O)O)C2CC1 (stereo not given in full) | 2.0% | 13.8%
Cc1ccccc1NC(=S)NC(C)CCc1ccccc1 (stereo not given) | -11.9% | -20.0%
COC(=O)c1ccc(CNC(=O)CSc2nnc(COc3ccccc3)n2C)o1 | · | -19.6%
Cc1c(CC(=O)O)c(=O)oc2cc(OCc3ccc(F)cc3F)ccc12 | i | -0.4%
CC1=NNC(=O)C1CC(=O)N/N=C/C(C)=C/c1ccccc1 (stereo not given) | -4.9% | -12.8%
O=C(NC(=S)NCc1cccnc1)c1ccccc1[N+](=O)[O-] | -8.1% | -14.9%

Source: PubChem
